# Assay outcomes deposited in PubChem BioAssay by ICCB-Longwood Screening Facility, Harvard Medical School.
# Ab BasE inh – blocks the Acinetobacter baumannii siderophore enzyme BasE | purified BasE, fluorescence polarization binding displacement | inhibition, % (no concentration beside the values) | hit rate 0.1% among 84,000 | AID 485350;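 active = both replicates above 25% with normal brightness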;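 also: 0% = negative plate control signal and 100% = positive plate control signal; stock transfer was 100 nL into about 30 µL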
# KSHV LANA nucl – inhibitors of KSHV LANA binding to nucleosomes; hit rate 0.3% among 51,000; FITC-LANA1-23 / chicken nucleosome fluorescence polarization; stronger effect = lower value; AID 720717; z-score (concentration not given with the values);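 active = both repeat wells score below -2 in polarization z-score versus plate sample wells, excluding overly bright wells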;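 also: 100 nL library stock added to about 30 µL; numbers are from one replicate; some results filed as inactive read as strong as hits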
#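 Material: Purified chicken nucleosomes with FITC-labelled LANA N-terminal peptide (1-23) | Reagent: 50 nM FITC-LANA1-23 probe | Medium: TEN-BT buffer, pH 7.5 | Times: 10–45 min incubation at room temperature | Detection: Fluorescence polarization | Replication: Duplicates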
# * hit, by the source's call; / = no result given; & = joins results of further samples. These rows are one share of the data; count on the stated rates, not on these rows.
# The first 7 entries (preview)
smiles	Ab BasE inh	KSHV LANA nucl
CCCN(CCC)C(=O)/C=C/c1cc(OC)c(OC)c(OC)c1	-1.1	0.253
CC(C)=C(NC(=O)c1ccccc1)C(=O)N(C)C	-0.5	0.37
CCOC(=O)N1CCN(C(=O)CN2C(=O)/C(=C/c3ccc(OCC)cc3)SC2=S)CC1	1.6	-0.0155
Cc1ccc(C(=O)COC(=O)c2ccc(Br)cn2)cc1	3.0	0.284
Cc1ccc(C(C)C)cc1OCCN	0.7	0.459
Cc1cc(C)cc(NC(=O)C2CCCN(S(=O)(=O)c3c(C)noc3C)C2)c1 (configuration not stated)	0.5	0.27
CC(CCc1ccccc1)NC(=O)CSc1cn[nH]n1 (configuration not stated)	1.2	-0.893

# Main list (from the top)
smiles	Ab BasE inh	KSHV LANA nucl
CCCN(CCC)C(=O)/C=C/c1cc(OC)c(OC)c(OC)c1	-1.1	0.253
CC(C)=C(NC(=O)c1ccccc1)C(=O)N(C)C	-0.5	0.37
CCOC(=O)N1CCN(C(=O)CN2C(=O)/C(=C/c3ccc(OCC)cc3)SC2=S)CC1	1.6	-0.0155
Cc1ccc(C(=O)COC(=O)c2ccc(Br)cn2)cc1	3.0	0.284
Cc1ccc(C(C)C)cc1OCCN	0.7	0.459
Cc1cc(C)cc(NC(=O)C2CCCN(S(=O)(=O)c3c(C)noc3C)C2)c1 (configuration not stated)	0.5	0.27
CC(CCc1ccccc1)NC(=O)CSc1cn[nH]n1 (configuration not stated)	1.2	-0.893
COc1ccc(C(C(=O)NCc2ccccc2)N(Cc2ccco2)C(=O)c2cnccn2)cc1 (configuration not stated)	2.9	-0.17
OC1(c2ccc(Br)cc2)NN=C2CCCCCN21 (configuration not stated)	-0.7	1.07
COC(=O)Cn1c(C(=O)OC)cc2c1ccn2-c1ccc(F)cc1	1.5	0.188
CC(C)(C)c1cc2n(n1)C1=NCCN1C=N2	0.1	/
CCOc1ncccc1C(=O)OCC(=O)N1C(C)CCCC1C (configuration not stated)	0.7	/
CC(C)Oc1ccc(C(F)(F)F)cc1NC(=O)C1CC1	2.3	-0.605
O=c1n(-c2ccccc2)c(=O)n2n1C1C=CC2C1	2.2	/
O=C1OCCC1Sc1nc2sccc2c(=O)n1-c1ccccc1 (configuration not stated)	-0.3	/
Cc1nc2cc(C(=O)Nc3ccc(Cn4ccnc4)cc3)ccc2n1-c1ccccc1	-25.6	/
O=C(c1cc(-c2ccccc2)on1)N1CCCc2ccccc21	-1.8	0.407
CNC(=S)N(Cc1cc2ccc(OC)cc2[nH]c1=O)C1CCCC1	0.3	-0.737
CCc1ccc(CN(C)C(=O)c2ccc3c(c2)OCCO3)cc1	0.3	/
CC1CC(CCC(=O)NC(=S)Nc2ccc(S(N)(=O)=O)cc2)C(=O)O1 (configuration not stated)	-0.1	0.974
COc1ccccc1NCC(=O)n1nc(C)cc1C	1.5	0.718
NNC(=O)c1nc(-c2cccc(-n3cccc3)c2)no1	2.5	-0.417
COc1cc(C)c(CSCC(=O)O)cc1OC	2.5	/
CS(=O)(=O)/C(C#N)=C/c1cccn1-c1ccc(OC(F)(F)F)cc1	2.8	/
CC1=NNC(=O)/C1=C/C1CC=CCC1 (configuration not stated)	1.1	/
CN(C)c1nc(-c2ccccc2)nnc1-c1ccccc1	/	0.127
O=C(NNc1ccnc2cc(Cl)ccc12)C1CCCCC1	0.5	/
O=C(CN1CCC(NC(=O)c2ccccc2)CC1)NCc1ccccc1F	-0.4	-0.272
CC1=CC(=C2C(=O)c3ccccc3C2=O)C=C(C)N1CCO	12.7	-1.32
O=C1c2cccnc2C(=O)N1CCc1ccc(S(=O)(=O)N2CCCCC2)cc1	-1.2	0.69
O=C(Nc1cccnc1)N(c1ccccc1)c1ccccc1	-1.7	-0.028
CN(C(=O)c1cccc(S(=O)(=O)N(C)C)c1)C1CCCCC1	1.9	/
CCCCCCCCCCCCCCC[C@@H](O)[C@H](CO)NC(=O)CCCCCCC	-1.0	-0.863
Cn1c(Cc2ccccc2)nnc1SC1CCOC1=O (configuration not stated)	0.6	/
Cc1ccc(-c2nc3ncccc3o2)cc1NC(=S)NC(=O)c1oc2ccccc2c1C	3.6	-1.43
O=C1c2ccccc2C(=O)N1Cc1cc(Cl)c2cccnc2c1O	2.4	-0.36
CCc1ccc(CN(C)C(=O)C2=CC=CN3CCS(=O)(=O)N=C23)cc1	0.5	/
COc1ccccc1-n1nnnc1SC(C)c1nnc(-c2ccc(F)cc2)o1 (configuration not stated)	0.8	/
CC1Sc2ccc(C(=O)Nc3ccc(N4CCOCC4)cc3)cc2NC1=O (configuration not stated)	-0.2	/
O=c1ccc(S(=O)(=O)N2CCCC2)cn1Cc1coc(-c2ccccc2)n1	2.1	/
CCOC(=O)C1(C(=O)OCC)CCC1	7.5	-0.155
CCCOC(=O)C(C)Sc1n[nH]c(=O)[nH]c1=O (configuration not stated)	4.6	-1.04
CCOC(=O)C1CCCN(CC(O)COc2ccc(OC)cc2C(C)(C)C)C1 (configuration not stated)	1.3	/
O=C(Nc1cc(C(F)(F)F)cc(C(F)(F)F)c1)C1CC1	1.9	0.26
CCN(CC)C(=O)Oc1cc2c(-c3cc4cccc(OC)c4o3)cc(=O)oc2cc1C	0.8	0.026
CCN1CCN(C(=O)CCCN2C(=O)c3ccccc3Sc3ncccc32)CC1	-3.0	2.44
COC(=O)Cc1ccc2c(c1)NC(=O)CO2	/	0.643
COc1ccc(CCNC(=O)c2ccc(S(=O)(=O)N3CCCC3)cc2)cc1	-1.2	/
O=C1c2ccccc2C(=O)N1CCC(c1ccccc1)c1ccco1 (configuration not stated)	-0.5	-0.397
CC1CCCC(C)N1C(=O)CSc1nc(N)c(-c2ccccc2)c(=O)[nH]1 (configuration not stated)	0.1	-0.0335
CCn1c(=O)cc(OCC(=O)NCCCN2CCN(c3cccc(Cl)c3)CC2)c2ccccc21	0.3	-0.221
CSc1nc(NC(=O)NS(=O)(=O)Cc2ccc(Cl)cc2Cl)nc(N2CCCC2)n1	1.2	/
O=C(CCc1nnc2n(CCc3ccccc3)c(=O)c3ccccc3n12)NCCN1CCOCC1	-1.2	0.547
CC(=O)Nc1cccc(Oc2ccc3c(c2)C(=O)N(c2cccc(Cl)c2)C3=O)c1	0.0	/
O=C(O)c1cc2c(s1)-c1ccccc1CC2	-0.9	/
CCCCNC(=O)N1CCN(c2ccnc3cc(Cl)ccc23)CC1	-3.9	-0.331
CCCn1c(=S)[nH]c2sc(CC)cc2c1=O	0.7	/
COc1ccccc1OC/C(O)=C(\C#N)c1nc2ccccc2[nH]1	-1.5	/
O=S(=O)(NC1CCCc2ccccc21)c1ccc(-n2cccn2)cc1 (configuration not stated)	-5.4	2
Cn1cc(S(=O)(=O)N2CCc3ccccc32)cc1C(=O)N1CCCCCC1	0.5	1.52

# Further records.
smiles	Ab BasE inh	KSHV LANA nucl
Cc1onc(-c2ccccc2)c1-c1ccnn1C(=O)c1ccc(Cl)cc1	0.7	/
Cc1c(N2C(=O)SC(CC(=O)O)C2=O)c(=O)n(-c2ccccc2)n1C (configuration not stated)	2.3	/
Cc1ccc(OCc2nnc(SCC(=O)NC3CCCCC3)n2C(C)C)c(C)c1	-2.2	-0.955
Cc1ccc(C(=O)N2CCc3ccccc32)cc1	1.2	/
COc1ccc(C2OC(=O)Cc3cc(OC)c(OC)cc32)cc1OC (configuration not stated)	-2.1	0.301
COc1cccc(N2CCN(CC(=O)C34CC5CC(CC(C5)C3)C4)CC2)c1	2.5	/
N#CCn1ccn(-c2ccc3c(c2)OCO3)c(=O)c1=O	0.0	-1.58
CCN(CC)S(=O)(=O)c1ccc2oc(SCC3CN=C(c4ccc(OC)cc4)S3)nc2c1 (configuration not stated)	0.8	/
COc1cccc(NC(=O)Cc2ccc3c(c2)OCCO3)c1	0.2	/
CC(=O)N1c2ccccc2NC2=C(C(=O)CCC2)C1c1ccccc1 (configuration not stated)	-2.6	0.503
Cc1[nH]c(C)c(Cl)c(=O)c1Cl	2.1	0.368&0.155&-0.31
COc1ccc(C2CC(=O)C=C(NCc3ccccc3)C2)cc1 (configuration not stated)	-2.2	/
O=C(CCC(=O)Nc1ccccc1)NN=C1CCCCC1	-2.1	2.83
NS(=O)(=O)c1ccc(CNC(=O)c2cccc(S(=O)(=O)NCC(F)(F)F)c2)cc1	-1.1	/
Cc1cc(=S)oc2ccccc12	1.3	/
COc1cc2c(cc1OC)C(COc1cc(C)cc(C)c1)N(C(C)=O)CC2 (configuration not stated)	-3.2	0.034
CCCn1c(C(O)c2ccc(C(C)C)cc2)nc2ccccc21 (configuration not stated)	1.6	/
COc1ccc(NCN2C(=O)CCC2=O)cc1	0.6	/
O=C(CCc1ccc(S(=O)(=O)N2CCOCC2)cc1)OCC(=O)c1ccc2c(c1)OCCO2	2.1	/
CCOc1cc2c(cc1CNCC(c1cccs1)N1CCN(C)CC1)OC(C)C2 (configuration not stated)	-1.0	/
Cc1nc(C)c(C#N)c(-c2c(Cl)cccc2Cl)c1C#N	/	0.891
Cc1ccc(N2C(=O)CSC23C(=O)N(CN2CCN(c4ccccc4F)CC2)c2ccccc23)cc1 (configuration not stated)	1.4	0.254
Cc1nn(CCC#N)c2c1P(=S)(N1c3ccccc3CC1C)/C(=C1\N(C)c3ccccc3C1(C)C)C=N2 (configuration not stated)	-2.4	/
CC1(C)CC(=O)C=C(NCc2ccco2)C1	0.2	/
COc1ccc(/C=C/C(=O)NCCN2CCOCC2)cc1S(=O)(=O)N1CCCCC1	-4.7	1.9
CN(Cc1ccco1)C1CCCCC1NS(=O)(=O)c1ccc(Cl)cc1 (configuration not stated)	-0.5	-0.978
CC1(CC(=O)N/N=C/c2ccc(-c3cccc(C(F)(F)F)c3)o2)OCCO1	0.0	-0.086
COc1ccccc1N1CCN(S(=O)(=O)c2c(C)sc3ncn(CC(=O)NCCN4CCOCC4)c(=O)c23)CC1	-0.1	0.16
COc1ccc(Cc2noc(COc3ccc(Cl)cc3)n2)cc1	1.9	0.0135
COc1cc(NC(=O)C(C)OC(=O)Cc2ccccc2)cc(OC)c1 (configuration not stated)	0.3	/

# For reference, part of the list above:
smiles	Ab BasE inh	KSHV LANA nucl
COc1ccc(C2OC(=O)Cc3cc(OC)c(OC)cc32)cc1OC (configuration not stated)	-2.1	0.301
COc1cccc(N2CCN(CC(=O)C34CC5CC(CC(C5)C3)C4)CC2)c1	2.5	/
N#CCn1ccn(-c2ccc3c(c2)OCO3)c(=O)c1=O	0.0	-1.58
CCN(CC)S(=O)(=O)c1ccc2oc(SCC3CN=C(c4ccc(OC)cc4)S3)nc2c1 (configuration not stated)	0.8	/

# The list goes on:
smiles	Ab BasE inh	KSHV LANA nucl
S=C(NC1Cc2ccccc2C1)N1CCCC1	-0.4	-0.432
COc1ccccc1S(=O)(=O)Cc1ccc(C(=O)NC2CCCCC2)o1	1.6	0.478
COC1(OC)CCCc2c1no[n+]2[O-]	1.4	-0.137
CC1CN(C(C(=O)c2c[nH]c3ccccc23)c2ccccc2)CC(C)O1 (configuration not stated)	0.5	/
CCn1cc(C(=O)N(Cc2nc3ccccc3c(=O)[nH]2)C(C)C)c(=O)c2ccc(C)nc21	0.8	/
Cc1ccc2oc3oc(=O)cc(C)c3c2c1	1.8	-0.716
CO[C@@]1(NC(=O)C2SC(=C(C(N)=O)C(=O)O)S2)C(=O)N2C(C(=O)O)=C(CSc3nnnn3C)CS[C@@H]21 (some centres not stated)	-2.0	0.221
COC(=O)c1cc(OC)c(OC)cc1NCC(=O)N1CCOCC1	2.1	/
O=C(O)c1ccc(N2CCOCC2)cc1	1.4	0.359
Cn1cc(C(=O)N2CCN(c3cccc(Cl)c3)CC2)c(=O)c2cc(S(=O)(=O)N3CCOCC3)ccc21	-0.4	0.518
COc1ccc(OCC(=O)OC2CCN(C)CC2)cc1	-0.2	-0.43
O=C(O)CSc1nc2c(c(C(F)(F)F)n1)CCc1ccccc1-2	6.2	0.0195
Cc1nc(-c2ccc(S(=O)(=O)NCCCN)s2)cs1	-6.6	0.015
O=C(COC(=O)/C=C/c1ccc(F)cc1)Nc1ncccn1	2.8	/
Cc1ccc(NC(C)c2cc(Cl)ccc2O)cc1 (configuration not stated)	1.7	0.272
Cc1cc(C)c(C#N)c(N)c1C#N	0.8	0.922
OC(CN1CCN(C2c3ccccc3-c3ccccc32)CC1)c1ccccc1 (configuration not stated)	5.0	/
N#CC(C#N)=Cc1ccc(-c2ccc(SC(F)F)cc2)o1	-11.7	/
NC(=O)c1nsc(C(=O)N(CCc2ccccc2)C(C(=O)NC2CCCC2)c2ccco2)c1N (configuration not stated)	1.7	0.398
CCN1C(=O)CC(N2CCC(CCc3ccc(OC)cc3)CC2)C1=O (configuration not stated)	1.5	-0.135
Cc1nc2ccc(NC(=O)c3cccc(C(F)(F)F)c3)cc2o1	/	-0.416
CN(Cc1ccccc1)C(=O)/C=C/C(=O)O	0.4	/
O=S(=O)(c1ccccc1)N1CCCC(C(F)(F)F)C1 (configuration not stated)	-1.1	0.071
